CBX7 inh: CBX7 chromodomain binding inhibitors, primary screen, biochemical, AlphaScreen. Chromobox protein homolog 7 (Homo sapiens), O95931. AlphaScreen His6-CBX7 / biotin-H3K27me3 peptide binding; active compounds read low. normalised signal (fraction of DMSO) (test concentration not listed). 66,000 compounds, 1.1% hits; in the data active = normalised signal below about 0.5;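 also: 100 nL library stock added to about 20 µL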
Target sequence (O95931 whole entry, looked up): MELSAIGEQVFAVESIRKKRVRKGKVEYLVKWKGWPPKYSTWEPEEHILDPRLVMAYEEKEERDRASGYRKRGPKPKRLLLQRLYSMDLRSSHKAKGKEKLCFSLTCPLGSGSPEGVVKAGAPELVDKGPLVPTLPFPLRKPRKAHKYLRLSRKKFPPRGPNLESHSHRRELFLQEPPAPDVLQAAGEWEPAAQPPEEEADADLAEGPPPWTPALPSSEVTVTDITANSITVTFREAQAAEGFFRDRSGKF
CBX7 inh z-score: recorded beside CBX7 inh, whose call it bears; z-score; measured here: z-score of CBX7 signal; some inactives read as strong as hits; reference of the scale not given here;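 same signal on another scale; lower means less binding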
Numbers without * were called inactive; & = joins results of further samples. Some of the compounds tested. The share of hits here may be higher or lower than overall.

Compound | CBX7 inh | CBX7 inh z-score
CCOc1ccc(NC(=O)Cn2cnc3c(nnn3Cc3ccc(F)cc3)c2=O)cc1 | 0.865 | -2.22
CC1CCN(C(=O)C2CCN(C(=O)c3cc4sccc4n3Cc3ccc(F)cc3)CC2)CC1 | 1.01 | 0.246
COc1ccccc1CNC(=O)CCN1C(=O)c2ccccc2C1=O | 1.06 | 0.688
O=C(O)CCC(=O)N1CCc2cc(S(=O)(=O)NCc3ccccc3Cl)ccc21 | 0.895 | -1.72
O=C(NC1CC1)c1ccc2c(c1)N(Cc1ccccc1Cl)C(=O)CS2 | 1.01 | 0.497
O=C(CSc1nccn1-c1cccc(Cl)c1)Nc1ccc2c(c1)OCO2 | 0.849 | -2.69
Cc1ccc2c(c1)c(=O)c(C(=O)c1ccc3c(c1)OCO3)cn2Cc1cccc(F)c1 | 0.721 | -0.983
CCCc1c(C(=O)OCC)[nH]c2c1C(=O)CC(c1cc(OC)ccc1OC)C2 (stereo not drawn) | 0.992 | -0.31
CCOc1ccc2ccccc2c1C(=O)N1CC(=O)Nc2ccc(C)cc2C1c1ccc(F)cc1 (stereo not drawn) | 0.674 | -3.11
CCOc1ccc(CNC(=O)CN2C(=O)COc3ccc(C(C)(C)C)cc32)cc1OC | 0.797 | -4.03
CCCCN(C)S(=O)(=O)c1ccc2c(c1)CCN2C(=O)CC | 0.987 | -0.109
COc1ccc(N2CCN(Cc3nc4c(c(=O)[nH]c(=O)n4C)n3Cc3ccccc3)CC2)cc1 | 0.971 | -1.05
Cc1cccc(-c2nc(Nc3ccc(Cl)cc3C)c3ccccc3n2)c1 | 1.3 | 6.41
COc1cccc(CN2C(=O)c3ccccc3C2C(=O)NC2CCCC(C)C2C)c1 (stereo not drawn) | 0.984 | -0.172
O=C(CC1(O)C(=O)Nc2ccccc21)c1ccc(Br)cc1 (stereo not drawn) | 1.03 | 0.388

Going on with the list.
Compound | CBX7 inh | CBX7 inh z-score
COC(CN(C)C(=O)C(NS(=O)(=O)c1ccc2c(c1)CCN2C(C)=O)C(C)C)OC (stereo not drawn) | 1.07 | 2.85
Cc1nc(C)c(-c2csc(Nc3ccc(Br)cc3)n2)s1 | 0.521 | -9.5
CC(=O)Nc1cccc(Oc2nc(C)cc(C)c2C#N)c1 | 1.16 | 1.52
CCn1c(C(=O)O)c(CC(=O)Nc2ccc(F)c(Cl)c2)c2ccccc21 | 1.05 | 1.3
CCc1ccc(Nc2cc(C(=O)NCCOC)c3ccccc3n2)cc1 | 1.09 | 1.4
Cc1ccc2oc(-c3ccc(NC(=O)CC(C)C)cc3)nc2c1 | 1.09 | 2.54
Cc1ccccc1Nc1nnc(C(C)(C)C)c(=O)[nH]1 | 1.06 | 0.99
Cc1cc(NC(=O)Cc2nn(C)c(=O)c3ccccc23)ccc1Br | 1.02 | 0.338
Cc1ccc(Cn2nnc3c(=O)n(Cc4ccc(Cl)cc4)cnc32)cc1 | 0.868 | -2.17
COc1cccc(N2C(=O)c3ccccc3C2C(=O)NC2CCCC2)c1 (stereo not drawn) | 0.934 | -0.777
O=C(O)CCC(=O)Nc1ccc(-c2csc(-c3ccccc3)n2)cc1 | 1.01 | 0.149
N#Cc1nc(COc2ccc(Br)cc2)oc1NCCCn1ccnc1 | 0.875 | -5.44
CCC1Oc2ccccc2N(CC(=O)NC2CCCC2)C1=O (stereo not drawn) | 1.13 | 1.39
Cc1ccccc1OCC(=O)Nc1c(C(=O)c2ccc(F)cc2)oc2ccccc12 | 1.08 | 0.366
O=C(CSCc1cnn(-c2ccccc2)c1-n1cccc1)NCc1ccc(F)cc1 | 1.06 | 2.56

Remaining list, next part:
Compound | CBX7 inh | CBX7 inh z-score
Cn1c(C(=O)N2CCCC(C(=O)NCCc3c[nH]c4ccccc34)C2)cc2sccc21 (stereo not drawn) | 0.593 | -11.7
COCCNC(=O)CCc1c(C)nc2cc(-c3ccc(OC)cc3OC)nn2c1C | 0.971 | -0.32
FC(F)(F)c1cc(-c2ccc(Cl)cc2)nc(NCc2cccnc2)n1 | 1.06 | 2.36
Cc1ccc(-c2noc(-c3ccccn3)n2)cc1 | 0.984 | -0.434
COc1ccc(CNc2nc(SCc3ccccc3F)nc3ccccc23)cc1 | 0.912 | -4.54
CC1CCCC(NC(=O)Cn2nc(-c3ccc(Cl)cc3)ccc2=O)C1C (stereo not drawn) | 1.26 | 0.522
O=C(NCc1ccccc1)c1cc2n(n1)C(C(F)(F)F)CC(c1ccc3c(c1)OCO3)N2 (stereo not drawn) | 0.887 | -0.113
O=C(O)c1cccc(NC(=O)c2ccc3c(c2)C(=O)N(c2nccs2)C3=O)c1 | 0.977 | -0.502
O=C(CN1CCN(Cc2ccccc2)C1=O)NCCN1CCOCC1 | 0.768 | -3.34
CCN(CC)CCCNC(=O)CC1Oc2ccc(Cl)cc2NC1=O (stereo not drawn) | 1.04 | 1.57
COc1ccc(Cl)cc1C(=O)N(Cc1nc(-c2ccccc2)no1)C(C)C | 0.884 | -2.18
Cc1ccc(NC(=O)c2cc(-c3cccs3)on2)cc1 | 1.03 | 0.262
Cc1sc2ncn(CC(=O)NCCCC(=O)NCc3ccccn3)c(=O)c2c1C | 0.883 | -2.4
CN1CCN(C(=O)c2ccc3c(c2)N(Cc2ccccc2F)C(=O)c2ccccc2S3=O)CC1 (stereo not drawn) | 0.96 | -1.05
Cc1cc(N2CCCCC2)nc2ccc(NC(=O)c3cncc(Br)c3)cc12 | 0.703 | -7.72

Part of the list above in order of SMILES length, lowest first:
Compound | CBX7 inh | CBX7 inh z-score
Cc1ccc(NC(=O)c2cc(-c3cccs3)on2)cc1 | 1.03 | 0.262
CC1CCCC(NC(=O)Cn2nc(-c3ccc(Cl)cc3)ccc2=O)C1C (stereo not drawn) | 1.26 | 0.522
CN1CCN(C(=O)c2ccc3c(c2)N(Cc2ccccc2F)C(=O)c2ccccc2S3=O)CC1 (stereo not drawn) | 0.96 | -1.05

In the list so far, five contain bromine.
Compound | CBX7 inh | CBX7 inh z-score
O=C(CC1(O)C(=O)Nc2ccccc21)c1ccc(Br)cc1 (stereo not drawn) | 1.03 | 0.388
Cc1nc(C)c(-c2csc(Nc3ccc(Br)cc3)n2)s1 | 0.521 | -9.5
Cc1cc(NC(=O)Cc2nn(C)c(=O)c3ccccc23)ccc1Br | 1.02 | 0.338
N#Cc1nc(COc2ccc(Br)cc2)oc1NCCCn1ccnc1 | 0.875 | -5.44
Cc1cc(N2CCCCC2)nc2ccc(NC(=O)c3cncc(Br)c3)cc12 | 0.703 | -7.72

Next part
Compound | CBX7 inh | CBX7 inh z-score
Cc1onc(-c2ccccc2Cl)c1C(=O)N(C)c1ccccc1 | 1.02 | 0.401
Cc1c(C(=O)NC2CCCc3ccccc32)oc2ccc(S(=O)(=O)N3CCCCCC3)cc12 (stereo not drawn) | 1.01 | 0.103
CC(C)C(NS(=O)(=O)c1cccs1)C(=O)NCCCN1CCN(c2ccccc2F)CC1 (stereo not drawn) | 0.963 | -0.72
Cc1ccc(-c2nc(Nc3ccc(F)cc3F)c3ccccc3n2)cc1 | 1.27 | 11.8
CCn1cc(C(=O)NCC2CCCO2)c(=O)c2ccc(C)nc21 (stereo not drawn) | 1.05 | 0.533
CCCS(=O)(=O)NCCc1cc2c(OC)ccc(OC)c2[nH]c1=O | 1.07 | 1.37
O=C(C1CCC(=O)N1Cc1cccnc1)N1CCN(c2ccc(F)cc2)CC1 (stereo not drawn) | 0.999 | -0.0349
O=C(Nc1cccc(S(=O)(=O)N2CCOCC2)c1)C12CC3CC(C1)CC(n1cncn1)(C3)C2 | 1.03 | 0.617
Cc1ccc(-n2cc(-c3ccc(Cl)cc3)nc2SCC(=O)c2ccccc2)cc1 | 0.901 | -2.66
CC1=CC(C)C2COC(c3ccc4c(c3)OCO4)C1C2C (stereo not drawn) | 0.734 | -0.745
Cc1oc(-c2ccc(Cl)cc2)nc1CN1CCC(C(=O)NCc2cccnc2)CC1 | 0.88 | -1.23
Cc1ccccc1-n1nc2c(c1NC(=O)C1CCCC1)CS(=O)(=O)C2 | 1.11 | 2.13
CCCN1CCN(CCCNC(=O)c2cc3c(-c4ccc(OC)c(OC)c4)nn(C)c3s2)CC1 | 0.916 | -1.08
O=C(NCCO)C(=O)NCc1ccncc1 | 0.734 | -1.05
COc1ccc(NC2c3ncccc3C(=O)N2Cc2ccc(F)cc2)cc1 (stereo not drawn) | 0.641 | -4.61

The results go on.
Compound | CBX7 inh | CBX7 inh z-score
CC1CC(C)CN(C(=O)c2ccc3c(c2)N(Cc2ccccc2)C(=O)c2ccccc2S3(=O)=O)C1 (stereo not drawn) | 0.901 | -1.54
CC1=C(C(=O)Nc2cccc(C)n2)C(c2cccs2)C2=C(CCCC2=O)N1 (stereo not drawn) | 1.04 | 0.397
O=C(Cn1c2c(c(-c3ccccc3Cl)cc1=O)CCC2)NCCCN1CCOCC1 | 0.764 | -2.55
CC1CCCC(NC(=O)CCN2C(=O)COc3ccccc32)C1C (stereo not drawn) | 1.02 | 0.494
Cc1ccc(CN2C(=O)CSc3ccc(C(=O)NCCC(C)C)cc32)cc1 | 0.998 | -0.0347
Cc1ccc(-c2nc(N3CCCCC3)nc3ccccc23)cc1 | 4.24 | 54.6
COc1ccc(NC(=O)c2c(NCc3ccc(OC)c(OC)c3)sc3c2CCC3)c(OC)c1 | 0.713 | -5.66
Cc1sc2ncn(CC(=O)NCCCC(=O)Nc3ccc4c(c3)OCCO4)c(=O)c2c1C | 1.1 | 1.15
O=C1CN(C(=O)Cc2ccc(F)cc2)C(c2ccc(F)cc2)c2cc(Br)ccc2N1 (stereo not drawn) | 1.13 | 1.28
CCCCN(CC)S(=O)(=O)c1ccc(C(=O)Nc2nc(-c3ccccn3)cs2)cc1 | 0.477* | -17*
Cc1ccc(NC(=O)CCC(=O)Nc2ccc3nc(N4CC(C)CC(C)C4)cc(C)c3c2)cc1F (stereo not drawn) | 1.03 | 1.5
COc1ccc(CN2CCCC2C(=O)Nc2ccc(OC)c(OC)c2)cc1OC (stereo not drawn) | 0.99 | -0.0609
COc1ccc(C)cc1NC(=O)Cn1cnc2ccc(S(=O)(=O)N3CCC(C)CC3)cc2c1=O | 1.01 | 0.279
NC(=O)CSc1oc(-c2ccc(F)cc2)nc1S(=O)(=O)c1ccc(F)cc1 | 1.09 | 0.745
COc1ccccc1CNC(=O)C(C)C1Sc2ccccc2N(Cc2cccc(Cl)c2)C1=O (stereo not drawn) | 0.948 | -0.831

Next part.
Compound | CBX7 inh | CBX7 inh z-score
COc1ccc(-c2nc3cc(C)ccn3c2NC(=O)c2ccccc2OC)cc1 | 1.13 | 1.29
CCOc1ccc(NC(=O)c2c(NCc3cccc(OC)c3OC)sc3c2CCC3)cc1 | 1.01 | 0.531
CC(NC(=O)c1cccc2c1C(=O)N(C1CCCCC1)C2)c1cccs1 (stereo not drawn) | 0.904 | -1.78
COc1ccc(Cl)cc1C(=O)Nc1ccc(-c2nc3ccccc3o2)cc1 | 0.978 | -0.0511
COc1ccc(-c2cc(C(F)(F)F)nc(S(=O)(=O)CCC(=O)N3CCOCC3)n2)cc1 | 1.04 | 1.13
O=C(Nc1ccccc1C(F)(F)F)c1cc(-c2cccc(Cl)c2)on1 | 1.01 | 0.304
Cc1ccc(CCN2C(=O)CCC2(C)C(=O)NC2CCCCC2)cc1 (stereo not drawn) | 0.529 | -16.6
Clc1ccc2nc(Oc3ccccc3)nc(-c3ccccc3)c2c1 | 1.14 | 2.28
C=CCNC(=O)c1cc(-c2ccc(OCC)cc2)nc2ccccc12 | 1.12 | 2.96
CCOC(CNC(=O)c1ccc2c(c1)N(CC)C(=O)c1ccccc1S2(=O)=O)OCC | 1 | 0.0699
Nc1nonc1-n1cc(C2(O)CCCCC2)nn1 | 1.07 | 2.04
CC(C)CCNC(=O)c1csc2c1CCCC2 | 1.06 | 1.88
CCOc1ccc(-n2cc(-c3ccccc3)c3c(NCc4ccc(F)cc4)ncnc32)cc1 | 0.959 | -1.04
CC(NC(=O)Cn1ncc2ccsc2c1=O)c1ccccc1 (stereo not drawn) | 1.03 | 1.65
O=C(c1ccc2c(c1)N(Cc1ccc(F)cc1)C(=O)c1ccccc1S2=O)N1CCc2ccccc21 (stereo not drawn) | 0.893 | -4.83

Carrying on:
Compound | CBX7 inh | CBX7 inh z-score
COc1cc(C(=O)Nc2ccc(F)cc2)ccc1OCc1ccccc1Cl | 1.03 | 0.0834
CN(C)C(=O)N1CCCC(C(=O)NCCc2ccccc2)C1 (stereo not drawn) | 1 | 0.0485
Cc1onc(-c2ccccc2)c1C(=O)N1CCC(C)CC1 | 1.04 | 0.858
CN(CC(=O)Nc1cccc(Cl)c1)S(=O)(=O)c1cccc2cccnc12 | 0.903 | -1.15
Cc1cc(OCc2nc(-c3ccc(NC(=O)c4cccs4)cc3)no2)ccc1Cl | 1.23 | 2.96
COc1ccc(-n2nc3c(c2NC(=O)c2ccc(Cl)cc2)CSC3)cc1 | 0.883 | -2.91
CN1CCN(CC#CCC(O)(c2ccccc2)C2CCCC2)CC1 (stereo not drawn) | 0.996 | -0.14
CC(NC(=O)c1cc(=O)[nH]c2ccccc12)c1ccccc1 (stereo not drawn) | 1.03 | 0.038
CCOCCCNC(=O)C1CCN(S(=O)(=O)c2c(C)noc2/C=C\c2ccc(OC)cc2)CC1 | 0.973 | -0.056
O=C(CN1N=C(c2ccccc2)CCC1=O)NCCN1CCOCC1 | 1.03 | 0.53
COc1cccc(OCC(O)CN2C(C)CCCC2C)c1 (stereo not drawn) | 1.14 | 1.07
N#Cc1nc(-c2ccccc2)oc1N1CCOCC1 | 0.873&1.04 | -1.52&1.62
Cc1cc(=O)[nH]c2c1c(=O)[nH]n2C1CCOC(C)(C)C1 (stereo not drawn) | 1.04 | 0.702
Cc1ccc(N2C(=O)C(Oc3ccc(Cl)cc3C)C2c2ccccc2Cl)cc1C (stereo not drawn) | 1.05 | 0.994
CCOC(=O)c1c(C)n(C)c2ccc(OCC(O)CNC(C)(C)C)cc12 (stereo not drawn) | 0.985 | -0.547
COc1cc(-c2nc3sc4c(c3c(=O)[nH]2)CCCC4)ccc1C | 0.992 | -0.126
O=C(Nc1c(-c2ccccc2)nc2ccccn12)c1ccccc1Cl | 1.21 | 3.55

Screening results deposited in PubChem by several laboratories.
